# VDR inh – inhibitors of human vitamin D receptor. P11473. VDR-SRC2-3 peptide fluorescence polarization, 2 h. Potency, µM, for inactives: max response, negative = inhibition, usual class: inhibitors. hit rate 0.93% among 400,000. AID 504847; active means well fitted inhibition curve with a large enough effect; inconclusive means small, poorly fitted or top-dose-only effect, or another doubt; inactive means no such curve, though single readings can be large or run the other way; further: series mostly up to about 120 µM
# Target sequence (P11473 whole entry, looked up): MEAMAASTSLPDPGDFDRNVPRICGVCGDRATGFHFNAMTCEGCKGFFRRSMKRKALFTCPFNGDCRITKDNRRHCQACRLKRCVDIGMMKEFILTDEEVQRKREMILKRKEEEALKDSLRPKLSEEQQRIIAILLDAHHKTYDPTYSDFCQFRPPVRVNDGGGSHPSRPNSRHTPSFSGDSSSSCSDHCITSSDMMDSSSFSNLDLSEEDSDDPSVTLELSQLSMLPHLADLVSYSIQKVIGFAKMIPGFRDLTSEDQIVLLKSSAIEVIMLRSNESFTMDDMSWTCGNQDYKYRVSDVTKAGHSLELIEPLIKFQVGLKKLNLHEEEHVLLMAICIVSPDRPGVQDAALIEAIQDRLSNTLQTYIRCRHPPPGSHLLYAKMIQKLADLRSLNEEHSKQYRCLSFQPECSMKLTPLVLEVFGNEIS
#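 Two reagent solutions held at 4 deg C in the dark were dispensed, compounds pinned at 23 nl, and the mixture incubated 2 h at room temperature. Read-out: fluorescence polarization of VDR–SRC2-3 peptide binding.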
# The depositor's hits bear a star; ? = inconclusive; & = joins results of further samples. On the % scale 0 is the no-effect control and ±100 the full control effect; potency means the concentration at half of the fitted maximal effect.
compound | VDR inh
O=C(NCCCCc1ccccc1)Nc1ccc(F)cc1 | 0%
CC1(C)OC(=O)C2(Cc3cc([N+](=O)[O-])ccc3N3CCCCCC32)C(=O)O1 (stereo not given) | -7%
Cc1cc(NC(=O)CN(C)CC(=O)Nc2ccc(Cl)c(C(F)(F)F)c2)no1 | -7%
Cc1cc(C(=O)CN2C(=O)c3ccccc3S2(=O)=O)c(C)n1C(C)C | -3%
Cc1ccccc1Cn1cnc2c([N+](=O)[O-])c(C)c(C)cc21 | -9%
CCOC(=O)c1c(C)oc2ncnc(N3CCN(c4ccccc4OC)CC3)c12 | 9%
Cn1c(=O)cc(SCC(=O)NCCC2=CCCCC2)c2ccc(Cl)cc21 | -14%
CC1CCN(C(=O)Cn2cc([N+](=O)[O-])ccc2=O)c2ccccc2S1 (stereo not given) | -4%
CCCCNCCOCCSc1ccc(Cl)cc1 | 13%
CC(=O)c1ccc(C(=O)N2CCc3c([nH]c4ccccc34)C2c2ccccn2)s1 (stereo not given) | -5%
c1ccc(OCc2nn3c(-c4ccco4)nnc3s2)cc1 | 0%
O=C(Nc1cc(C(F)(F)F)ccc1N1CCOCC1)c1n[nH]c(=O)c2ccccc12 | 4%
Cc1cc(NC(=O)c2n[nH]c(=O)c3ccccc23)ccc1Br | -11%
CC(NC(=O)COc1ccc([N+](=O)[O-])cc1)c1ccccc1 (stereo not given) | -14%
COc1cc(COCC(O)CN2C(C)CCCC2C)cc(OC)c1OC (stereo not given) | ?
CCN1CCN(C(=O)c2cc(S(=O)(=O)N3CC(C)CC(C)C3)ccc2Cl)CC1 (stereo not given) | -18%
O=C(COc1ccccc1Br)N1CCN(C(=O)c2cccs2)CC1 | 0%
Cc1ccc(C)c(CS(=O)(=O)c2cn(CC(=O)N(C(C)C)C(C)C)c3ccccc23)c1 | 15%
O=C(NCCC1=CCCCC1)c1cc2c(s1)CS(=O)(=O)C2 | 5%
CCOC(=O)c1c(Cl)c(C)nn1-c1nc(OC)cc(OC)n1 | -11%
Cc1nc2ccc(C(=O)N3CCN(Cc4ccccc4)CC3)cc2[nH]1 | 18%
O=C(NNC(=O)C1CC=CCC1C(=O)O)c1ccc(Cl)cc1 (stereo not given) | 1%
O=C(COc1ccc([N+](=O)[O-])cc1)NCc1ccccc1 | 3%
Cn1nc(C(F)(F)F)cc1Oc1ncc(C(F)(F)F)cc1Cl | 1.4µM*
CNc1ncnc2c1cnn2-c1ccc(C)c(C)c1 | 16%
CCC(=O)Nc1c2c(nn1-c1cccc(Cl)c1)CS(=O)(=O)C2 | -19%
CCOC(=O)C(=O)c1c(C)cc2ccccn12 | -1%
CC(=O)C1=C(NC(=O)c2ccc(C(F)(F)F)cc2)C[C@@H]2[C@H]1C2(C)C | -12%
COc1ccccc1NC(=O)c1cccc(S(=O)(=O)N2CCCCCC2)c1 | -21%
O=[N+]([O-])c1c(N2CCN(CCO)CC2)nc2ccccn12 | -16%

# An excerpt of these results, with the structure last:
VDR inh	mol
-18%	CCN1CCN(C(=O)c2cc(S(=O)(=O)N3CC(C)CC(C)C3)ccc2Cl)CC1 (stereo not given)
0%	O=C(COc1ccccc1Br)N1CCN(C(=O)c2cccs2)CC1

# Carrying on:
compound | VDR inh
COc1ccc(C(O)c2nccn2Cc2ccccc2)cc1OC (stereo not given) | 16%
CCCCNC(=O)Cn1c(-c2ccc(OC)cc2)noc1=O | -17%
CC(C)(C)C(Cn1ccnc1)NC(=O)c1ccc2nc(C3CC3)oc2c1 (stereo not given) | 0%
Cc1cc(NC(=O)CSc2nccn2-c2cccc(F)c2)no1 | 8%
CC(C)c1nnc(NC(=O)CCC(=O)NC2CCCc3ccccc32)s1 (stereo not given) | -18%
O=C(O)c1ccccc1C(=O)NCc1c(Cl)cccc1Sc1ccc(Cl)cc1 | -12%
CCn1c(SCC(=O)NC2=NCCS2)nnc1C(C)NC(=O)c1ccccc1Br (stereo not given) | 17%
Cc1ccc2c(c1)N(CC(=O)NCc1cccnc1)C(=O)CO2 | 19%
C[C@H](NC(=O)CCCOc1ccc(Cl)cc1Cl)c1nnc2ccccn12 | -7%
CCCCCn1c(=O)[nH]c2cc(C(=O)NC(C)CC)ccc2c1=O (stereo not given) | -21%
COc1ccc(CC(CC(=O)O)C(=O)Nc2ccc(Cl)c(Cl)c2)cc1 (stereo not given) | ?
CCCn1c(SCC(=O)N2CCCc3ccccc32)nnc1-c1ccccn1 | -2%
CC(C)OCCCNC(=O)C(=O)N/N=C/c1ccc(OCc2ccccc2)cc1 | -6%
Cc1ccsc1/C=C1/NC(=O)N(Cc2ccc(F)cc2)C1=O | -1%
Cc1ccc(NC(=O)CSc2nnc(-c3ccccc3C)o2)cc1C | 3%
CCOc1ccccc1C1C(C(N)=O)=C(C)Nc2nc(-c3cccc(C)c3)nn21 (stereo not given) | -11%
Cc1cn([C@H](C(=O)NCCCCCCCCCCC(=O)N2CCN(C(=O)OC(C)(C)C)CC2)[C@@H](C)O)nn1 | -9%
FC(F)(F)c1nnc2ccc(NCc3ccccc3)nn12 | 7%
Cc1nc2cnc(OCc3ccccc3)nc2n(CCc2ccccc2)c1=O | -1%
Cc1nc2c(C(F)(F)F)cccc2c2c1CCS2 | 0%
CCOC(=O)c1c[nH]c2c([N+](=O)[O-])cc(OC)cc2c1=O | 7%
COc1ccc(NC(=O)Nc2cccc3c2O[C@H](CN(C)S(=O)(=O)c2cccs2)[C@@H](C)CN([C@H](C)CO)C3=O)cc1 | -22%
Cc1ccc(-n2ncc(C(=O)NC3CCCC3)c2C2CCN(C(=O)OC(C)(C)C)CC2)c(C)c1 | -8%
COC(=O)Cc1c(C)c2c(OCc3nn[nH]n3)cc(C)cc2oc1=O | -8%
CCOC(=O)c1cc(CC)sc1N1C(=O)CC(Sc2ccccc2C(=O)O)C1=O (stereo not given) | 1%
O=C1NC(c2ccccc2Cl)Nc2ccccc21 (stereo not given) | 3%
Cc1cccc(NC(=O)C2CC(=O)N(c3ccc4c(c3)OCCO4)C2)n1 (stereo not given) | -24%
O=S(=O)(c1ccc2c(c1)OCCCO2)N1CCNCC1 | 1%
CCOc1ccccc1NC(=O)C(NCCc1ccc(OC)cc1)c1ccccc1 (stereo not given) | 1%
C/C(=N\NC(=O)c1ccccc1[N+](=O)[O-])c1c(O)cc(C)oc1=O | 0%

# The list continues:
compound | VDR inh
C/C(=N/OCO/N=C(\C)c1ccccc1F)c1ccccc1F | -15%
O=C(Nc1ncccc1Cl)C(Sc1ccccc1)c1ccccc1 (stereo not given) | 1%
O=C(O)c1ccc(Cl)c(S(=O)(=O)Nc2ccccc2C(=O)Nc2ccc(Cl)cc2)c1 | 11%
CN1C(=O)/C(=C/c2ccccc2OCc2cccc(F)c2)N(C)C1=S | 3%
O=C(O)/C=C/C(=O)N(CC1CCCO1)C1CC(=O)N(c2c(Cl)cccc2Cl)C1=O (stereo not given) | -1%
O=C(NC1CCCCC1)C(c1ccc(F)cc1)N(Cc1cccs1)C(=O)CN1C(=O)c2ccccc2S1(=O)=O (stereo not given) | 2%
Cc1cc(-c2nnc(SCC(=O)c3ccc(Cl)cc3)o2)no1 | 2%
CCCCn1nnc(NC(=O)c2ccc(-c3cccc(Cl)c3)o2)n1 | -10%
COc1ccc2c(CC(=O)OCC(=O)N(C)c3c(N)n(Cc4ccccc4)c(=O)[nH]c3=O)coc2c1 | 5%
Cc1cc(=O)oc2c(CN3CCC(C)CC3)c(O)c(Cl)cc12 | 1%
CCOC(=O)CSc1nc(N)c(C#N)c(CC(C)C)c1C#N | 1%
O=C1c2cccc3c(N4CCCCC4)ccc(c23)C(=O)N1c1ccc(O)cc1 | 21%
O=C(Nc1nc(-c2ccc(Cl)s2)cs1)c1ccco1 | -14%
Cc1ccsc1/C=C1\CCC(C2CCCC2)C1=O (stereo not given) | -7%
CCC(=O)OCc1c(C(F)(F)F)nn(C)c1Sc1ccc(Cl)cc1 | 6%
CCOc1cccc2sc(N(CCCN(C)C)C(=O)c3ccc(C(=O)c4ccccc4)cc3)nc12 | 8%
COCCCn1c(=O)c2ccccc2n2c(=S)[nH]nc12 | 3%
Oc1ccc(C=NC2CCCCC2)cc1 | -5%
CCCOc1cc(N)ccc1C(=O)OCCN(CC)CC | -2%&1%
O=C(O)c1cccc(COc2ccc(CO)cc2Cl)c1 | 11%
N#CC(c1nc2ccccc2nc1N1CCCC1)S(=O)(=O)c1cccs1 (stereo not given) | 10%
Cc1ccccc1C(NC(N)=O)c1ccccc1 (stereo not given) | -37%
COc1ccc(CC(=O)Nc2cc(S(=O)(=O)N3CCOCC3)ccc2N2CCCC2)c(OC)c1 | 8%
COc1ccc(CNc2oc(COc3ccccc3Cl)nc2C#N)cc1 | 5%
COc1ccc(CCN2C(=O)N(c3ccccc3)C(=O)C2CC(=O)Nc2ccccc2)cc1 (stereo not given) | -25%
CNC(=S)NNC(=O)c1oc2nc(-c3ccccc3)cc(C)c2c1N | -12%
CCCc1c(OCC(O)COc2ccc3c(=O)cc(C(=O)O)oc3c2CCC)ccc(C(C)=O)c1O (stereo not given) | 45µM*
O=C(OCCN1CCOCC1)C1(c2ccccc2)CCCCC1 | -1%&-9%
Cc1nn(C)c(C(=O)Nc2c(C)nn(Cc3c(F)c(F)c(F)c(F)c3F)c2C)c1Br | 24%
CCc1nc(SCC(=O)NC2CCCC2)c2oc3ccccc3c2n1 | -4%

# Remaining list, next part:
compound | VDR inh
COc1cc2c(cc1OC)/C(=C/C(=O)c1ccc([N+](=O)[O-])c(C)c1)NCC2 | ?
COCCn1c(Cc2ccccc2)nnc1SCc1nc2ccccc2c(=O)[nH]1 | 20%
O=C(CCC(=O)NNc1nc2ccccc2c2nc(-c3ccccc3)nn12)NCCCN1CCCC1=O | 2%
COc1ccc(OC)c(NC(=O)C(C)n2nc(C)c3c(C)n(-c4ccccc4)nc3c2=O)c1 (stereo not given) | -3%
Cc1ccc(-c2nc(CS(=O)(=O)CC(=O)NC(C)CCc3ccccc3)c(C)o2)cc1 (stereo not given) | -12%
CN(C)/C=N/S(=O)(=O)c1cccn1-c1ncc(C(F)(F)F)cc1Cl | 11%
Cc1c(NS(=O)(=O)c2cccc(C(=O)NCc3cccc(Cl)c3)c2)c(=O)n(-c2ccccc2)n1C | -17%
Cc1cc2nc(CS(=O)(=O)c3ccccc3)cc(=O)n2[nH]1 | -7%
CCOC(=O)c1cc2c(=O)n3ccccc3nc2n(Cc2ccco2)c1=NC(=O)c1c(F)cccc1Cl | ?
CC12CCC(C(=O)Nc3cc(F)ccc3F)(CC1=O)C2(C)C (stereo not given) | 1%
Nc1nc(SCc2ccc3c(c2)OCO3)n[nH]1 | 7%
COc1ccc(CCNC(=O)COC(=O)c2ccc(N3CCCC3=O)cc2)cc1 | 1%
CCC(C)(C)NC(=O)C(c1ccc(C)cc1)N(CCN1CCOCC1)C(=O)CNC(=O)c1cccs1 (stereo not given) | -9%
CCCCN(CC)CCCNC(=O)Cn1ncc2c3ccccc3n(Cc3ccc(F)cc3)c2c1=O | -1%
COCCNC(=O)C(c1ccc(O)cc1)N(Cc1cccs1)C(=O)CCC(=O)Nc1ccccn1 (stereo not given) | -2%
COc1cccc(NC(=O)C(Cc2ccccc2)NS(=O)(=O)c2ccc3c(c2)oc(=O)n3C)c1 (stereo not given) | 0%
CN1CCN(S(=O)(=O)c2cccc(C(=O)N(C)C(c3ccccc3)c3ccccc3)c2)CC1 | 6%
O=C(O)CCn1[nH]c(=O)ccc1=O | 14%
CCCN1CCN(C(=O)CCc2nnc3ccc(N4CCN(c5cccc(OC)c5)CC4)nn23)CC1 | 3%
N#Cc1ccncc1S(=O)c1ccc(Cl)cc1 (stereo not given) | 10%
Cc1ccc(C(=O)NCc2ccco2)cc1S(=O)(=O)N1CCOCC1 | 2%
CCOC(=O)C1(Cc2cccc(F)c2)CCN(C(=O)C2CCC2)CC1 | -10%
Cc1cc(Nc2ccccc2)nc(N2CCN(C(=O)c3ccc4c(c3)OCO4)CC2)n1 | -11%
CCOc1ccc2ccccc2c1C1NC(=O)NC(C)=C1C(=O)OCCOC (stereo not given) | -11%
CC1=NCCN1S(=O)(=O)c1ccc(Br)c(C)c1 | -2%
CCC(=O)Nc1nc2c(OC)ccc(OC)c2s1 | -18%
Cc1cccc(C(=O)OC(C)CN2CCN(C)CC2)c1 (stereo not given) | -5%
O=S1(=O)CCOC[C@H](CC2CCCCC2)N1Cc1ccccc1 | -2%
Cc1ccc(S(=O)(=O)N(Cc2ccc(Cl)cc2)c2ccccc2C(=O)NCc2ccco2)cc1 | ?
COC(=O)c1cc(Br)ccc1NC(=O)CCNC(=O)c1ccco1 | 6%

# Shown as a hit in VDR inh (from the list above):
compound | VDR inh
Cn1nc(C(F)(F)F)cc1Oc1ncc(C(F)(F)F)cc1Cl | 1.4µM*
CCCc1c(OCC(O)COc2ccc3c(=O)cc(C(=O)O)oc3c2CCC)ccc(C(C)=O)c1O (stereo not given) | 45µM*

# Next part:
compound | VDR inh
COc1ccc(/C=N/n2c(-c3n[nH]c4c3CCC4)n[nH]c2=S)cc1 | 3%
O=C(CSc1nnc(CNc2ccccc2)o1)c1ccc2c(c1)OCCO2 | 2%
CCOC(=O)c1cc(-c2ccc(N)cc2)sc1N | -3%
CCc1nnc2c(NCCc3ccccc3)nc3ccccc3n12 | 4%

# Grouped by structure, the compounds so far containing a cyano group
compound | VDR inh
CCOC(=O)CSc1nc(N)c(C#N)c(CC(C)C)c1C#N | 1%
N#CC(c1nc2ccccc2nc1N1CCCC1)S(=O)(=O)c1cccs1 (stereo not given) | 10%
COc1ccc(CNc2oc(COc3ccccc3Cl)nc2C#N)cc1 | 5%
N#Cc1ccncc1S(=O)c1ccc(Cl)cc1 (stereo not given) | 10%

# Screens as filed in PubChem BioAssay.

# This is a subset (hit frequency here may not be typical).
